Source: PubChem (Broad Institute)
HIV Env fusion – HIV envelope-mediated fusion inhibition. 360,000 compounds, 1.1% hits. inhibition, % at 12.3 µM. HeLa-JRFL Env/CEM21 cell fusion, luciferase;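 active means mean replicate inhibition score of at least 50 and every replicate individually at or above 50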;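 further: 0% = plate neutral controls and 100% = maraviroc near 300 nM; one replicate is shown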
UUG fidelity – modulators of start codon recognition fidelity in yeast; S. cerevisiae UUG-firefly luciferase reporter, luminescence/redox ratio; activity score, % at 18.7 µM; 350,000 compounds, 0.13% hits;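 active means replicate mean at a twofold rise or more, about +100% in these data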;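 further: firefly luciferase made from a UUG start codon reports start codon fidelity; reporter light over untreated wells divided by growth signal over untreated wells; some hits fall short of that in this replicate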
* marks the source's active call; other numbers are inactive results; [ ] = another dose, or the depositor's remark. These rows are one share of the data (hit frequency here may not be typical).

SMILES | HIV Env fusion | UUG fidelity
CCS(=O)(=O)N[C@@H]1CC[C@@H](CC(=O)Nc2ccc(-c3ccccc3)cc2)O[C@@H]1CO | -12[16.7 µM] | -12
C[C@@H]1CN([C@H](C)CO)C(=O)c2cc(N(C)C)ccc2O[C@@H](C)CCCCO[C@@H]1CN(C)C(=O)Cc1ccccc1 | 5[16.7 µM] | 22
C[C@H](CO)N1C[C@H](C)[C@H](CN(C)S(=O)(=O)c2ccccc2F)Oc2ncc(C#Cc3ccccc3)cc2C1=O | 22[16.7 µM] | 21
C[C@@H]1CCCCO[C@H](CN(C)C)[C@@H](C)CN([C@H](C)CO)C(=O)c2cc(NC(=O)C3CCCCC3)ccc2O1 | 2[16.7 µM] | 4
COc1ccc(S(=O)(=O)Nc2ccc3c(c2)C(=O)N([C@@H](C)CO)C[C@@H](C)[C@H](CN(C)Cc2ccc(C(=O)O)cc2)OCCCC[C@H](C)O3)cc1 | 9[16.7 µM] | 10
CN(C)C(=O)C[C@H]1CC[C@H](NC(=O)NC2CCCCC2)[C@H](CO)O1 | 0[16.7 µM] | -9
COc1ccc(CN(C)C[C@H]2OCCCC[C@@H](C)Oc3ccc(NS(=O)(=O)c4ccccc4)cc3C(=O)N([C@@H](C)CO)C[C@@H]2C)cc1 | -34[16.7 µM] | 16
CCCC(=O)Nc1ccc2c(c1)OC[C@@H](C)N(C)C[C@H](C)[C@H](OC)CN(C)C2=O | -6[16.7 µM] | -7
COc1cccc(S(=O)(=O)Nc2ccc3c(c2)[C@@H]2C[C@@H](CC(=O)NCc4cccc(F)c4)O[C@@H](CO)[C@@H]2O3)c1 | -24[16.7 µM] | 12
C[C@H]1CN([C@@H](C)CO)C(=O)Cc2cc(NC(=O)CCN3CCOCC3)ccc2O[C@@H]1CN(C)Cc1ccccc1 | 19[16.7 µM] | 6
C[C@@H](NC(=O)C[C@H]1CC[C@@H]2[C@H](COC[C@@H](O)CN2Cc2cc(F)ccc2F)O1)c1ccccc1 | -1[16.7 µM] | -15
Cc1noc(C)c1NC(=O)Nc1ccc2c(c1)C(=O)N([C@H](C)CO)C[C@H](C)[C@@H](CN(C)CC1CCCCC1)OCCCC[C@H](C)O2 | 4[16.7 µM] | 15
CC(C)NC(=O)Nc1ccc2c(c1)C(=O)N([C@H](C)CO)C[C@H](C)[C@H](CN(C)C(=O)Nc1cccc3ccccc13)OCCCC[C@H](C)O2 | 24[16.7 µM] | 23
C[C@@H]1CCCCO[C@H](CN(C)C(=O)Nc2ccc3c(c2)OCO3)[C@H](C)CN([C@H](C)CO)C(=O)c2cc(NC(=O)Nc3ccccc3)ccc2O1 | -33[16.7 µM] | -5
C[C@H](CO)N1C[C@H](C)[C@@H](CN(C)C(=O)c2ccc3c(c2)OCO3)Oc2ncc(C#CCN(C)C)cc2C1=O | -5[16.7 µM] | -4
C[C@@H]1CCCCO[C@H](CN(C)C)[C@@H](C)CN([C@H](C)CO)C(=O)c2cc(NS(C)(=O)=O)ccc2O1 | -5[16.7 µM] | -20
COc1ccccc1-c1cnc2c(c1)C(=O)N([C@H](C)CO)C[C@@H](C)[C@H](CN(C)Cc1ccncc1)O2 | -5[16.7 µM] | -9
CN1C(=O)c2cc(NC(=O)C3CC3)ccc2OC[C@@H]2O[C@H](CC(=O)NCCc3ccncc3)CC[C@@H]21 | -13[16.7 µM] | -26
Cc1noc(C)c1NC(=O)N(C)C[C@H]1OCCCC[C@H](C)Oc2ccc(NS(C)(=O)=O)cc2C(=O)N([C@@H](C)CO)C[C@@H]1C | -20[16.7 µM] | -1
O=S(=O)(N[C@@H]1CC[C@H](CCn2cc(C3(O)CCCC3)nn2)O[C@@H]1CO)c1ccc(F)cc1 | 13[16.7 µM] | -2

Complete entries, looked up by structure. Order of values: HIV Env fusion, UUG fidelity
CN1C(=O)c2cc(NC(=O)C3CC3)ccc2OC[C@@H]2O[C@H](CC(=O)NCCc3ccncc3)CC[C@@H]21 across the screens: -13[16.7 µM], -26
C[C@@H]1CCCCO[C@H](CN(C)C(=O)Nc2ccc3c(c2)OCO3)[C@H](C)CN([C@H](C)CO)C(=O)c2cc(NC(=O)Nc3ccccc3)ccc2O1 across the screens: -33[16.7 µM], -5
CC(C)NC(=O)Nc1ccc2c(c1)C(=O)N([C@H](C)CO)C[C@H](C)[C@H](CN(C)C(=O)Nc1cccc3ccccc13)OCCCC[C@H](C)O2 across the screens: 24[16.7 µM], 23
C[C@H](CO)N1C[C@H](C)[C@@H](CN(C)C(=O)c2ccc3c(c2)OCO3)Oc2ncc(C#CCN(C)C)cc2C1=O across the screens: -5[16.7 µM], -4

The listing picks up, starting 3 compounds before the break.
SMILES | HIV Env fusion | UUG fidelity
CN1C(=O)c2cc(NC(=O)C3CC3)ccc2OC[C@@H]2O[C@H](CC(=O)NCCc3ccncc3)CC[C@@H]21 | -13[16.7 µM] | -26
Cc1noc(C)c1NC(=O)N(C)C[C@H]1OCCCC[C@H](C)Oc2ccc(NS(C)(=O)=O)cc2C(=O)N([C@@H](C)CO)C[C@@H]1C | -20[16.7 µM] | -1
O=S(=O)(N[C@@H]1CC[C@H](CCn2cc(C3(O)CCCC3)nn2)O[C@@H]1CO)c1ccc(F)cc1 | 13[16.7 µM] | -2
O=C(NC1CCCCC1)N[C@H]1CC[C@@H](CCNS(=O)(=O)c2ccc(F)cc2)O[C@@H]1CO | 8[16.7 µM] | 9
C[C@@H]1CN([C@H](C)CO)C(=O)c2cc(NS(=O)(=O)c3ccccc3)ccc2O[C@@H]1CN(C)CC1CCCCC1 | -3[16.7 µM] | 1
N#C[C@@H]1[C@H](c2ccc(C3=CCCC3)cc2)[C@@H](CO)N1C(=O)C1CC1 | 4[16.7 µM] | 8
O=C(NCc1ccc(F)cc1)[C@H]1C[C@H]2C(=O)NCC(=O)N2[C@H]1c1ccc(O)cc1 | -7[16.7 µM] | -17
O=C(N[C@H]1CC[C@H](CCNS(=O)(=O)c2ccc(F)cc2)O[C@H]1CO)c1cnccn1 | 16[16.7 µM] | 4
O=C(NCC[C@H]1CC[C@@H](NS(=O)(=O)c2ccccc2F)[C@H](CO)O1)c1ccc(F)cc1 | 6[16.7 µM] | 30
C[C@H]1CN([C@@H](C)CO)S(=O)(=O)c2ccc(C#Cc3cccc(F)c3)cc2O[C@H]1CN(C)C | 10[16.7 µM] | 7
CCC(=O)Nc1ccc2c(c1)OC[C@@H](C)N(C(=O)c1ccccn1)C[C@@H](C)[C@H](OC)CN(C)C2=O | -4[16.7 µM] | 0
COc1ccc(NC(=O)N(C)C[C@@H]2OCCCC[C@H](C)Oc3ccc(N(C)C)cc3C(=O)N([C@@H](C)CO)C[C@@H]2C)cc1 | 16[16.7 µM] | 5
Cc1noc(C)c1NC(=O)N(C)C[C@@H]1Oc2ccc(NC(=O)NC3CCCCC3)cc2CC(=O)N([C@H](C)CO)C[C@H]1C | -9[16.7 µM] | -2
COc1ccc(NC(=O)Nc2ccc3c(c2)CC(=O)N([C@H](C)CO)C[C@@H](C)[C@H](CN(C)S(=O)(=O)c2ccc(OC)cc2)O3)cc1 | -3[16.7 µM] | -7
Cc1noc(C)c1NC(=O)N(C)C[C@H]1Oc2c(cccc2N(C)C)C(=O)N([C@H](C)CO)C[C@H]1C | -21[16.7 µM] | 3
COc1ccc(C#Cc2ccc3c(c2)[C@]2(C(=O)N3)[C@H](C(=O)N3CCN(c4ncccn4)CC3)[C@H]3C(=O)O[C@H](c4ccccc4)[C@H](c4ccccc4)N3[C@@H]2c2ccc(O)cc2)cc1 | -20[16.7 µM] | 13
CC(C)NC(=O)Nc1ccc2c(c1)C(=O)N([C@@H](C)CO)C[C@H](C)[C@H](CN(C)Cc1ccc(Cl)c(Cl)c1)O2 | 5[16.7 µM] | 3
C[C@@H](NC(=O)C[C@H]1CC[C@H]2[C@@H](COC[C@H](O)CN2Cc2ccc(C(F)(F)F)cc2)O1)c1ccccc1 | 27[16.7 µM] | 7
CC(=O)N(C)C[C@@H]1Oc2cc(-c3cccc(F)c3)ccc2S(=O)(=O)N([C@@H](C)CO)C[C@@H]1C | -9[16.7 µM] | 17
C[C@@H]1CCCCO[C@@H](CN(C)C(=O)Nc2ccc3c(c2)OCO3)[C@H](C)CN([C@@H](C)CO)C(=O)c2cc(NS(=O)(=O)c3cn(C)cn3)ccc2O1 | 10[16.7 µM] | 0
C[C@@H]1CN([C@H](C)CO)C(=O)c2cc(-c3cncnc3)cnc2O[C@H]1CN(C)C(=O)Cc1cccnc1 | -33[16.7 µM] | -7
O=C/C=C/c1ccc(-c2ccccc2)cc1 | -72[16.7 µM] | -12
C[C@H]1CN([C@@H](C)CO)S(=O)(=O)c2ccc(C#CC3(O)CCCC3)cc2O[C@@H]1CN(C)C | -20[16.7 µM] | 14
CCCC#Cc1cnc2c(c1)C(=O)N([C@H](C)CO)C[C@H](C)[C@@H](CN(C)C(=O)Cc1cccnc1)O2 | -7[16.7 µM] | -9
Cc1ccc(S(=O)(=O)NCC[C@H]2CC[C@@H](NC(=O)Nc3ccccc3F)[C@@H](CO)O2)cc1 | -11[16.7 µM] | -1
C[C@H]1CN([C@@H](C)CO)C(=O)c2cccc(NC(=O)Nc3ccc(C(F)(F)F)cc3)c2O[C@@H]1CN(C)S(=O)(=O)c1ccc(F)cc1 | -17[16.7 µM] | 9
CCCN1C[C@H](C)[C@H](OC)CN(C)C(=O)c2ccc(NC(=O)COC)cc2OC[C@H]1C | 1[16.7 µM] | 0
C[C@@H]1CCCCO[C@H](CN(C)Cc2ccc(C(=O)O)cc2)[C@H](C)CN([C@H](C)CO)C(=O)c2cc(NC(=O)Nc3cccc4ccccc34)ccc2O1 | 13[16.7 µM] | -2
C/C=C/c1ccc2c(c1)O[C@H](CN(C)C(=O)c1ccccn1)[C@@H](C)CN([C@@H](C)CO)S2(=O)=O | 27[16.7 µM] | -14
CC(=O)N[C@@H]1CC[C@H](CCNC(=O)C2CCCC2)O[C@@H]1CO | -10[16.7 µM] | -11
Cc1ccc(S(=O)(=O)Nc2ccc3c(c2)CC(=O)N([C@@H](C)CO)C[C@@H](C)[C@H](CN(C)Cc2ccc(Cl)c(Cl)c2)O3)cc1 | 33[16.7 µM] | 9
CNC(=O)C[C@H]1CC[C@H]2[C@@H](COc3ccc(NC(=O)c4cccc(OC)c4)cc3C(=O)N2C)O1 | -2[16.7 µM] | 9
O=C(C[C@H]1C=C[C@H](NC(=O)CN2CCOCC2)[C@@H](CO)O1)NCCc1ccccc1 | 5[16.7 µM] | -15

Filtered by structure, those above containing a Cl atom (two)
SMILES | HIV Env fusion | UUG fidelity
CC(C)NC(=O)Nc1ccc2c(c1)C(=O)N([C@@H](C)CO)C[C@H](C)[C@H](CN(C)Cc1ccc(Cl)c(Cl)c1)O2 | 5[16.7 µM] | 3
Cc1ccc(S(=O)(=O)Nc2ccc3c(c2)CC(=O)N([C@@H](C)CO)C[C@@H](C)[C@H](CN(C)Cc2ccc(Cl)c(Cl)c2)O3)cc1 | 33[16.7 µM] | 9

(list continues)
SMILES | HIV Env fusion | UUG fidelity
CCCNC(=O)C[C@H]1C[C@H]2c3cc(NC(=O)C4CCOCC4)ccc3O[C@H]2[C@@H](CO)O1 | -30[16.7 µM] | -9
CC(=O)N(C)C[C@@H]1Oc2ncc(C#Cc3cccc(F)c3)cc2C(=O)N([C@@H](C)CO)C[C@H]1C | -21[16.7 µM] | 16
C[C@H](CO)N1C[C@H](C)[C@@H](CN(C)Cc2ccncc2)Oc2cc(C#CC(C)(C)O)ccc2S1(=O)=O | -6[16.7 µM] | -13
COc1ccc(-c2cnc3c(c2)C(=O)N([C@H](C)CO)C[C@H](C)[C@H](CN(C)C(=O)Nc2ccc4c(c2)OCO4)O3)cc1 | 5[16.7 µM] | 16
C[C@@H]1CN([C@@H](C)CO)C(=O)c2cc(NC(=O)CCC(F)(F)F)ccc2O[C@H]1CN(C)Cc1ccc(Oc2ccccc2)cc1 | -4[16.7 µM] | 9
COc1cccc(C#Cc2ccc3c(c2)O[C@@H](CN(C)C(=O)CN2CCOCC2)[C@H](C)CN([C@H](C)CO)S3(=O)=O)c1 | 9[16.7 µM] | 27
Cc1noc(C)c1NC(=O)N(C)C[C@H]1Oc2c(NC(=O)Nc3ccc(F)cc3)cccc2C(=O)N([C@@H](C)CO)C[C@@H]1C | -9[16.7 µM] | -6
C[C@@H]1CN([C@H](C)CO)C(=O)c2cc(NC(=O)Nc3ccc4c(c3)OCO4)ccc2O[C@@H](C)CCCCO[C@H]1CN(C)C(=O)Cc1ccccc1 | 10[16.7 µM] | 22
COc1ccc(S(=O)(=O)Nc2cccc3c2O[C@@H](CN(C)C(=O)Nc2ccc(C(F)(F)F)cc2)[C@@H](C)CN([C@@H](C)CO)C3=O)cc1 | -29[16.7 µM] | -1
C[C@H]1CCCCO[C@@H](CN(C)CC2CCCCC2)[C@@H](C)CN([C@@H](C)CO)C(=O)c2cc(NS(=O)(=O)c3ccc(Cl)cc3)ccc2O1 | -8[16.7 µM] | 19
CN(C)C(=O)C[C@@H]1C=C[C@H](NC(=O)C2CCC2)[C@@H](CO)O1 | 7[16.7 µM] | 0
C[C@H](CO)N1C[C@H](C)[C@H](CN(C)Cc2ccc(C(=O)Nc3ccccc3N)cc2)Oc2ccc(N(C)C)cc2C1=O | -51[16.7 µM] | 11
Cc1cccc(NC(=O)Nc2ccc3c(c2)C(=O)N(C)[C@@H]2CC[C@H](CC(=O)O)O[C@@H]2CO3)c1 | 5[16.7 µM] | -2
C[C@H](CO)N1C[C@H](C)[C@@H](CN(C)CC2CCCCC2)OCCCC[C@H](C)Oc2ccc(NS(C)(=O)=O)cc2C1=O | 12[16.7 µM] | 2
CS(=O)(=O)N1[C@H](C#N)[C@@H](c2ccccc2)[C@@H]1CO | 5[16.7 µM] | -4
C[C@@H]1CCCCO[C@H](CN(C)Cc2ccccc2)[C@@H](C)CN([C@H](C)CO)C(=O)c2cc(NC(=O)Cc3ccccc3)ccc2O1 | 8[16.7 µM] | -7
